Source: PubChem
H5N1_CPE = MDCK cell protection from H5N1 avian flu. cytopathic effect, luminescence, 72 h; active compounds read high; no value below 0 was filed and about half of the inactive calls have no number; reference of the scale not given here. inhibition, % at 50 µM. 96,000 compounds, 0.07% hits. AID 740, 2007; in the data active means inhibition above about 25%
Starred values were filed as active, the others as inactive. These rows are one share of the data (hit frequency here may not be typical).

SMILES H5N1_CPE
CCOc1ccc(S(=O)(=O)N2CCCCCC2)c2ccccc12 1.4
